High-throughput results: PubChem, National Center for Advancing Translational Sciences (NCATS)
Vaccinia mCherry: inhibitors of vaccinia virus infection (mCherry reporter signal); Vaccinia virus mCherry reporter infection, fluorescence; about a quarter of the inactives have no number; Potency, µM (top dose mostly 36.5 µM), for the others: at the top dose activity change, negative = inhibition, most hits filed as inhibitors; 310,000 tested, 0.63% active; AID 720579; active = well fitted inhibition curve with a large enough effect; inconclusive = small, poorly fitted or top-dose-only effect; inactive = no such curve, though single readings can be large or run the other way; tested in A549 cells; further: nearly all actives have a fitted effect of over 35% in size; inactives centre near -10
Vaccinia Venus: inhibitors of vaccinia virus (Venus reporter); Vaccinia virus Venus reporter expression, fluorescence; Potency, µM (top dose mostly 36.5 µM), for inactives: top-dose activity change, negative = inhibition, most hits filed as inhibitors; 330,000 tested, 0.46% active; AID 720580; active means well fitted inhibition curve with a large enough effect; inconclusive means small, poorly fitted or top-dose-only effect; inactive means no such curve, though single readings can be large or run the other way; tested in A549 cells; further: nearly all actives have a fitted effect of over 30% in size; inactives centre near -10
* = called active by the depositor; i = inactive; ? = inconclusive; / = not tested or not shown; [ ] = remark or other dose. On the % scale 0 is the no-effect control and ±100 the full control effect; potency means the concentration at half of the fitted maximal effect.

The line under a structure holds: Vaccinia mCherry, Vaccinia Venus
- CCc1nnc(SCc2nc(-c3ccccc3)oc2C)c2cc3sccc3n12
→ -14.8%, -8.3%
- COc1cc(C(=O)Nc2sc3c(c2C(N)=O)CCC(C)C3)cc(OC)c1OC (configuration not stated)
→ -7.4%, 4.0%
- Cc1ccc(Cc2cnc(N3C(=N)SC(c4ccccc4)C3=O)s2)cc1 (configuration not stated)
→ -6.7%, -2.6%
- Cc1cccc(Cn2c(N(C)Cc3ccccc3)nc3c2c(=O)[nH]c(=O)n3C)c1
→ -8.6%, ?
- C[C@@H](C(=O)NC1CCN(Cc2ccccc2)CC1)N1C(=O)N2CCc3c([nH]c4ccccc34)[C@@]2(C)C1=O
→ -20.7%, -20.7%
- O=C1c2ccccc2N2C(=O)c3ccccc3C2N1O (configuration not stated)
→ /, -0.5%
- Nc1ccc(Nc2nc(-c3cc4ccccc4oc3=O)cs2)cc1
→ ?, -15.1%
- CC(NC(=O)CSc1nc2c(cc1C#N)CN(C)CC2)c1ccccc1 (configuration not stated)
→ 10µM*, ?
- CCCSC(=S)c1c(C)[nH]n(-c2ccccc2)c1=O
→ -15.7%, ?
- Nc1ccc(S(=O)(=O)Nc2nccc(/C=C/c3ccc([N+](=O)[O-])cc3)n2)cc1
→ -27.0%, -14.0%
- COc1ccc(CNC(=O)CCCn2ccc3cc(S(=O)(=O)N4CCCC4)ccc32)cc1
→ -28.9%, -27.5%
- CC(=O)Nc1cc(C)c2nc(NC(C)=O)sc2c1
→ -18.7%, -6.9%
- O=C(Nc1ccc(Oc2ccccc2)nc1)[C@H]1O[C@@H](n2ccc(=O)[nH]c2=O)[C@H](O)[C@@H]1O
→ 2.6%, 0.7%
- O=C(NN=C1CCC(=NNC(=O)c2ccccn2)CC1)c1ccccn1
→ -4.6%, -7.2%
- Cc1ccc(S(=O)(=O)N2CCC(=O)N(C(COCc3ccc(C(F)(F)F)cc3)C(C)C)CC2)cc1 (configuration not stated)
→ i, ?
- CC(=O)N/C(=N\c1nc(C)cc(C)n1)Nc1ccccc1Cl
→ -8.5%, -17.8%
- NC(=O)c1nsc(C(=O)N(Cc2cccnc2)C(C(=O)NCc2ccccc2)c2ccc(O)cc2)c1N (configuration not stated)
→ -18.9%, -12.3%
- COc1ccc(-n2c3c(cc(C#N)c2=O)C(=O)CCC3)cc1
→ ?, -21.7%
- CC(=O)Nc1ccc2c3c(ccc([N+](=O)[O-])c13)CC2
→ -1.8%, -13.7%
- CC1(C(=O)Nc2cccc(Oc3ccccc3)c2)CCN1Cc1ccccc1OC(F)F (configuration not stated)
→ -24.3%, -18.9%
- COc1ccccc1OCc1cc(C(=O)N2CCCC(OCc3cccnc3)C2)no1 (configuration not stated)
→ i, -17.9%
- CCN(CC)C(=N)/C(C#N)=N/Nc1ccccc1
→ -27.8%, -18.1%
- O=S(=O)(NCCc1ccc(Cl)cc1)c1ccc(N2CCCCS2(=O)=O)cc1
→ -4.8%, -10.7%
- CC1(C)NC(=O)N(CC(O)CN2CCCC2)C1=O (configuration not stated)
→ -12.5%, -12.6%
- Cc1ccccc1S(=O)(=O)NC(=O)C1(C)CCN1C(=O)CC1CCCCC1 (configuration not stated)
→ 24.7%, 3.5%
- O=C(CN1C(=O)CSc2ccccc21)NC1CCCC1
→ -13.8%, -2.6%
- Cc1oc(=O)c(NC(=O)c2ccccc2)cc1C(N)=O
→ 6.7%, 1.2%
- COc1ccc(-n2c(=O)c3c4c(sc3n(Cc3ccccc3)c2=O)CN(C(C)=O)CC4)cc1OC
→ -11.3%, -17.5%
- COc1ccc(NC2CS(=O)(=O)CC2NCc2ccccc2)cc1 (configuration not stated)
→ /, 8.6%
- CC(C)(C)n1nc2c(c1NC(=O)c1ccccc1F)CS(=O)C2 (configuration not stated)
→ -9.0%, -8.8%
- CCCS(=O)(=O)NC(=O)C1(C)CCCN(C(=O)c2cc(C)on2)C1 (configuration not stated)
→ 2.4%, 8.4%
- Cn1c(Cc2cccs2)nnc1SCC(=O)N1CCCc2ccccc21
→ -2.9%, -9.7%
- CCCCCn1c(=O)[nH]c2cc(C(=O)NCc3ccc(OC)cc3)ccc2c1=O
→ 6.0%, 6.5%
- Cc1cc(NC(=O)CNCC(c2ccccc2)N(C)C)c([N+](=O)[O-])cc1C (configuration not stated)
→ i, 0.7%
- O=S(=O)(NCCSc1nnnn1-c1ccccc1)c1ccc(F)cc1
→ -7.2%, -7.6%
- Cc1nn(Cc2ccccc2)c(C)c1NC(=O)CCCn1nc([N+](=O)[O-])c(Cl)c1C
→ i, -11.6%
- c1ccc2c(c1)[nH]c1c(N3CCC4(CC3)OCCO4)ncnc12
→ /, ?
- Cc1c(Br)c([N+](=O)[O-])nn1C(C)C(=O)N1CCCc2ccccc21 (configuration not stated)
→ -24.9%, -16.3%
- O=S(=O)(Nc1ccccc1O)c1cccc2cccnc12
→ -23.1%, -14.6%
- COc1ccc(CC(=O)N2CCN(c3ccc(C4=NNC(=O)CC4C)cc3)CC2)cc1 (configuration not stated)
→ -25.8%, -26.9%
- O=C(Cc1n[nH]c(=O)c2ccccc12)Nc1ccc(-c2nnc3n2CCCCC3)cc1
→ /, -8.1%
- O=C(N/N=C/c1ccc([N+](=O)[O-])o1)c1ccc(O)cc1
→ 12.6µM*, ?
- CSc1ccccc1NC(=O)CN(C)CC(=O)Nc1ccccc1C(F)(F)F
→ 1.0%, -1.9%
- Cc1c(Nc2cc(N3CCCC(C)C3)c3nonc3c2[N+](=O)[O-])c(=O)n(-c2ccccc2)n1C (configuration not stated)
→ -17.7%, -7.5%
- Cc1ccccc1N(C(=O)Cc1c[nH]c2ccccc12)C(C(=O)NC1CCCCC1)c1ccco1 (configuration not stated)
→ ?, ?
- Cc1cc(C(=O)N/N=C2\CC(=O)CC(C)(C)C2)c2ccccc2n1
→ -4.1%, -9.0%
- C=CCSc1ncc(-c2ccccc2)cn1
→ -9.0%, -1.9%
- CC[C@@H](C)[C@@H]1CN([C@@H](C)CN2CCC[C@H]2CN2C(N)=NC[C@@H]2Cc2ccccc2)C(=N)N1CCCC1CCCC1
→ -7.8%, -14.8%
- CCn1c(COc2c(C)cccc2C)nnc1SCc1nc2ccccc2c(=O)[nH]1
→ -4.9%, -8.6%
- Cc1ccc(-c2cnc(C(O)c3c(C)cccc3C)[nH]2)cc1 (configuration not stated)
→ 10.9%, -3.5%
- Clc1cccc(CN2CCc3c([nH]c4ccccc34)C2)c1Cl
→ -15.4%, -20.8%
- CC1CCc2c(c3ccccc3[nH]c2=O)O1 (configuration not stated)
→ /, ?
- O=C(Cn1ccc(NC(=O)OCc2ccccc2)nc1=O)NCCc1ccccn1
→ i, -6.5%
- Nc1ccc(-c2nc3ccc(C(=O)O)cc3s2)cc1
→ -12.5%, 2.1%
- Cn1nnc2c(N3CCCCC3)ncnc21
→ -5.0%, -13.8%
- CCOc1c(Cl)cc(/C=C/C(=O)N(CC)CC(=O)NCc2cccs2)cc1OC
→ -12.3%, -27.4%
- Cc1cccc(C)c1N1CCN(C(=O)Cn2cncn2)CC1
→ -4.7%, -7.5%
- O=C(COC(=O)c1cccnc1Cl)NCc1ccco1
→ -0.9%, -0.8%
- Fc1ccc(N2N=C(c3cccs3)CC2c2ccccc2)cc1 (configuration not stated)
→ -22.6%, -4.0%
- COc1ccccc1NC(=O)COC(=O)c1ccccc1C(=O)N1CCN(c2ccccc2)CC1
→ -10.2%, 2.8%

One compound at a time (already shown):
O=C(N/N=C/c1ccc([N+](=O)[O-])o1)c1ccc(O)cc1 across the screens: Vaccinia mCherry = 12.6µM*; Vaccinia Venus = ?
C=CCSc1ncc(-c2ccccc2)cn1 across the screens: Vaccinia mCherry = -9.0%; Vaccinia Venus = -1.9%
Cc1c(Nc2cc(N3CCCC(C)C3)c3nonc3c2[N+](=O)[O-])c(=O)n(-c2ccccc2)n1C (configuration not stated) across the screens: Vaccinia mCherry = -17.7%; Vaccinia Venus = -7.5%

Continuation.
The line under a structure holds: Vaccinia mCherry, Vaccinia Venus
- Brc1cc2c(cc1C1OCCCO1)OCO2
→ i, -8.0%
- COC(=O)c1cc(C#N)c(Oc2cccc(C)c2C)nc1C
→ /, -11.2%
- O=C(Cc1c(Cl)cccc1Cl)Nc1cccnc1
→ i, -14.3%
- CCN(CC(=O)NCc1cccs1)C(=O)c1ccc(S(=O)(=O)N(C)C)cc1
→ -10.6%, -12.5%
- c1ccc2c(C[C@@H]3CNCCN3CCC34CC5CC(CC(C5)C3)C4)cccc2c1
→ ?, ?
- CC(=O)Nc1ccc(-c2ccnc3c2CC(C(=O)NCc2ccco2)O3)cc1 (configuration not stated)
→ ?, ?
- O=C(CC[C@H]1O[C@@H](n2cnc3c(NC(=O)c4ccccc4)ncnc32)[C@H](O)[C@@H]1O)NCCCN1CCOCC1
→ 34.5%[activator], -5.3%
- Cc1ccc(NC(=O)C2CCCN(c3cnccn3)C2)cc1Cl (configuration not stated)
→ -5.9%, -5.6%
- Cc1cccc2cc(CN(CC3CCCO3)C(=S)Nc3ccccc3)c(=O)[nH]c12 (configuration not stated)
→ -16.1%, -17.4%
- Cc1c(-c2nsc(NC(=O)c3cccs3)n2)nnn1-c1ccc(Cl)cc1
→ -2.4%, -14.5%
- CC(OC(=O)CNC(=O)c1ccc2ccccc2c1)C(=O)NC1CCCCC1C (configuration not stated)
→ -21.1%, -15.8%
- O=C(NC1CCCCC1)C(c1cccnc1)N(C(=O)c1csnn1)c1ccccc1F (configuration not stated)
→ -1.9%, 5.6%
- O=C(Nc1cc(S(=O)(=O)N2CCOCC2)ccc1Cl)c1ccncc1
→ -11.1%, -9.7%
- CN1C(=O)c2[nH]nc(-c3ccc(F)cc3)c2C1c1ccccn1 (configuration not stated)
→ -7.4%, -2.8%
- Cc1ccccc1N(CC(=O)O)S(C)(=O)=O
→ /, -16.3%
- Cc1cc(Cl)c2oc(C(=O)N3CCN(c4cccc(C)n4)CC3)c(C)c2c1
→ -2.7%, 9.1%
- CC(C)CN(C(=O)CN1CCCCCC1)c1c(N)n(CC(C)C)c(=O)[nH]c1=O
→ i, -6.1%
- COCCN1C(=O)N(c2cccc(OC)c2)C(=O)C1CC(=O)Nc1ccc(OC)cc1 (configuration not stated)
→ i, -2.2%
- O=C(NC1CC1)c1ccc2nc(-c3ccco3)c(-c3ccco3)nc2c1
→ 15.3%, -7.4%
- CCCCOCCCNC(=O)CCCOc1ccccc1
→ -9.0%, -4.6%

4 records picked at random from the list so far, as already listed:
The line under a structure holds: Vaccinia mCherry, Vaccinia Venus
- O=C(CC[C@H]1O[C@@H](n2cnc3c(NC(=O)c4ccccc4)ncnc32)[C@H](O)[C@@H]1O)NCCCN1CCOCC1
→ 34.5%[activator], -5.3%
- O=C(Nc1cc(S(=O)(=O)N2CCOCC2)ccc1Cl)c1ccncc1
→ -11.1%, -9.7%
- c1ccc2c(C[C@@H]3CNCCN3CCC34CC5CC(CC(C5)C3)C4)cccc2c1
→ ?, ?
- CC(OC(=O)CNC(=O)c1ccc2ccccc2c1)C(=O)NC1CCCCC1C (configuration not stated)
→ -21.1%, -15.8%

Continuation.
The line under a structure holds: Vaccinia mCherry, Vaccinia Venus
- CCO[C@H]1OC(C(=O)N2CCOCC2)=C[C@@H](c2coc3ccccc3c2=O)[C@@H]1CCCO
→ i, 1.6%
- COc1cc(CN2CCNC(=O)C2CC(=O)N2CCCO2)cc(OC)c1 (configuration not stated)
→ i, -14.6%
- C[C@H]1[C@H]2CC[C@H]3[C@@H]4CC=C5C[C@@H](N(C)C)CC[C@]5(C)[C@H]4CC[C@]23CN1C
→ -1.4%, -11.0%
- C=CCSc1nnc(-c2nnc(SCC=C)n2-c2ccccc2)n1-c1ccccc1
→ -12.4%, -0.2%
- COc1cc(OC)c(OC)cc1CN1CCN(c2ccccc2OC)CC1
→ -18.6%, -11.4%
- COc1ccc(S(=O)(=O)NC(CC(=O)O)c2ccco2)cc1 (configuration not stated)
→ -11.0%, -6.8%
- O=C(CSc1nccc(=O)[nH]1)c1ccco1
→ -14.2%, -4.0%
- O=[N+]([O-])c1cccc(C(=S)N2CCN(c3ccccc3)CC2)c1
→ -10.9%, -16.5%
- O=C(Nc1ccc(F)cc1)N1CCCC(c2nc3c(nnn3Cc3ccccc3Cl)c(=O)[nH]2)C1 (configuration not stated)
→ -6.2%, -0.4%
- CCCCNC(=O)c1ccc2c(c1)N(CC)C(=O)c1ccccc1S2
→ -15.8%, -14.3%
- Cc1ccc(-n2c(SCC(=O)NCC3CCCO3)nc3n[nH]c(C)c3c2=N)cc1Cl (configuration not stated)
→ /, ?
- O=C(NCCCc1nc2ccccc2n1Cc1ccc(Cl)cc1)C1CCCCC1
→ -9.2%, -7.2%
- O=C(COC(=O)c1cc([N+](=O)[O-])ccc1N1CCOCC1)c1ccc(Br)cc1
→ -14.2%, -27.0%
- O=c1ccc(-c2ccccc2)nn1Cc1ccccc1F
→ -18.7%, -24.0%
- Cc1ccc(NC(=O)Cn2nnc3ccccc32)cc1
→ i, -8.2%
- CN(C)CCCN1C(=O)C(O)=C(C(=O)c2cc3ccccc3o2)C1c1ccccn1 (configuration not stated)
→ i, -8.1%
- CC1=NN(C(N)=S)C(=O)C1N=Nc1ccccc1[N+](=O)[O-] (configuration not stated)
→ i, 1.0%
- C(=Nc1cccc2c(N=Cc3ccco3)cccc12)c1ccco1
→ i, -3.9%
- COc1cccc(-c2ccc(O)c(CNC(c3ccccc3)c3ccc(Cl)cc3)c2)n1 (configuration not stated)
→ -17.0%, -6.3%
- OCC1CCN(Cc2nc(Cc3ccccc3Cl)no2)CC1
→ -5.1%, -6.2%
